# Screening results deposited in PubChem BioAssay by National Center for Advancing Translational Sciences (NCATS).
# VACV Venus inh: inhibitors of vaccinia virus (Venus reporter); 330,000 tested, 0.46% active; Potency, µM (doses to about 36.5 µM), inactives show at the top dose activity change, negative = inhibition, hits mostly inhibitors; Vaccinia virus Venus reporter expression, fluorescence; AID 720580; active means well fitted inhibition curve with a large enough effect; inconclusive means small, poorly fitted or top-dose-only effect; inactive means no such curve, though single readings can be large or run the other way; tested in A549 cells; note: nearly all actives have a fitted effect of over 30% in size; inactives centre near -10
# VACV mCherry inh: inhibitors of vaccinia virus infection (mCherry reporter signal); Potency, µM (doses to about 36.5 µM), for inactives: at the highest dose activity change, negative = inhibition, actives largely listed as inhibitors; Vaccinia virus mCherry reporter infection, fluorescence; about a quarter of the inactives have no number; 310,000 tested, 0.63% active; active = well fitted inhibition curve with a large enough effect; inconclusive = small, poorly fitted or top-dose-only effect; inactive = no such curve, though single readings can be large or run the other way; tested in A549 cells; note: nearly all actives have a fitted effect of over 35% in size; inactives centre near -10
# * marks the source's active call; other numbers are inactive results; i = inactive; ? = inconclusive; / = no result given; & = joins results of further samples; [ ] = remark or other dose. % is set by controls: 0 for no effect and ±100 for the full control effect; potency is the fitted concentration of half-maximal effect.
# Values run as follows: VACV Venus inh | VACV mCherry inh
- Cc1nc2ccc(C(=O)N(C)Cc3ccco3)cn2c1N(C)C(=O)CCc1ccccc1
    4% | 0%
- C=CCn1c2ccccc2c(=O)c2cc(C#Cc3ccccn3)ccc21
    -13% | i
- CN1c2ccccc2C(C)(C)C12CC(c1cccc(S(=O)(=O)N3CCCC3)c1)=NO2 (stereo not given)
    2% | i
- O=C(CSc1nncn1-c1ccccc1F)NC1CCCCC1
    -10% | -19%
- CCOc1cc2[nH]c(=O)n(CCCCC(=O)N3CCN(c4ccccc4)CC3)c(=O)c2cc1OCC
    ? | -29%
- COC(=O)Cn1c(=NC(=O)c2cc(OC)cc(OC)c2)sc2cc(OC)ccc21
    -15% | -15%
- Cc1cccc(NC(=O)c2cc3n(n2)C(C(F)(F)F)CC(C2CC2)N3)c1C (stereo not given)
    -9% | -10%
- Cc1cc(C(=O)COC(=O)c2nc3nccc(C)n3n2)c(C)n1CC1CCCO1 (stereo not given)
    2% | i
- O=C(CSc1nnc(CNC(=O)c2cccs2)o1)NCCc1ccccc1
    -10% | -19%
- CC(C)NC(=O)CN1CCN(C(c2ccnc3ccccc23)c2nnnn2-c2ccc3c(c2)OCCO3)CC1 (stereo not given)
    5% | -9%
- CC(=O)c1ccc2noc(-c3ccc(F)cc3)c2c1
    -10% | -6%
- CCOc1ccc(N(CC(=O)Nc2ccc(OC)cc2)S(=O)(=O)c2c(C)noc2C)cc1
    -4% | 3%
- Cc1ccccc1NC(=S)NCCc1ccc(S(N)(=O)=O)cc1
    -9% | -12%
- CCOc1cccc(CC(=O)N2CCc3c([nH]c4ccccc34)C2c2ccc(OC)cc2)c1OCC (stereo not given)
    -20% | -19%
- CCCN1CCC(NC(=O)C2CC=CCC2C(=O)O)CC1 (stereo not given)
    0% | i
- Cc1csc(=O)n1CC(=O)OCC(=O)c1c(N)n(CC(C)C)c(=O)n(C)c1=O
    -11% | -20%
- Cc1cc(C)nc(SCC(=O)NC2CCCC2)n1
    -7% | -6%
- O=C(CSc1nc2ccccc2[nH]1)N1CCN(S(=O)(=O)c2ccc(Cl)cc2)CC1
    -25% | /
- CC(C)C[C@H]1CN(CCCC[C@H]2CNC(=O)C(=O)N2CC2CCCCC2)C(=O)C(=O)N1CCC1CCCCC1
    -5% | 13%
- Cc1onc(-c2ccccc2)c1C(=O)N/N=C/c1cn(C)c2ccccc12
    -10% | -11%
- CC(C)CNC(=O)CSc1ccc(Cl)cc1
    -18% | /
- O=C1NC2(c3ccccc3)NC(=O)NC2(c2ccccc2)N1 (stereo not given)
    7% | -10%
- COCc1cccc(-c2csc(C(NC(C)=O)c3ccc(F)c(F)c3)n2)c1 (stereo not given)
    -16% | i
- CCOc1ccc2[nH]c(C(=O)N/N=C/c3cc(OC)c(OC)c(OC)c3)cc2c1
    -4% | -17%
- CCCCN(c1ccccc1)S(=O)(=O)c1cccc(C(=O)Nc2c(C)n(C)n(-c3ccccc3)c2=O)c1
    -24% | -29%
- COc1ccc(OCc2nn3c(-c4ccco4)nnc3s2)cc1
    -19% | /
- CSCCC1NC(=O)N(CC(=O)Nc2ccc(-c3ccccc3)cc2)C1=O (stereo not given)
    -23% | -19%
- Cc1cc(Cl)ccc1NC(=O)CN1C(=O)CSc2ccc(S(=O)(=O)N(C)C)cc21
    -2% | -15%
- Cc1ccc2c(c1)nnn2C1CCN(CC(=O)Nc2ccccc2N2CCOCC2)CC1
    ? | -20%
- CSc1ccc(/C=N/NC(=O)c2cccc(O)c2)cc1
    -23% | -13%

# The list continues:
# Values run as follows: VACV Venus inh | VACV mCherry inh
- CCCCn1nnnc1C1(C)CCC(=O)N1CCc1ccccc1F (stereo not given)
    -2% | -4%
- COCCNC(=O)Cn1cc(C(=S)N2CCOCC2)c2ccccc21
    -14% | i
- Cc1ccc2nc(-c3ccc(NC(=O)COC(=O)c4ccco4)cc3)sc2c1
    -28% | ?
- Cc1cc(C)c(NC(=O)CSc2nc3ccccc3c3nc(-c4ccccc4)nn23)c(C)c1
    -7% | -4%
- NC(=O)c1ccccc1OCC(=O)NC12CC3CC(CC(C3)C1)C2
    -13% | /
- COc1ccc(C(O)c2nc(-c3cccs3)cs2)cc1 (stereo not given)
    0% | -9%
- CC1CCCCC1NC(=O)CCS(=O)(=O)c1cc2c(cc1Cl)NC(=O)CO2 (stereo not given)
    -2% | i
- c1ccc2[nH]c(NCc3ccc4c(c3)OCO4)nc2c1
    -15% | ?
- C=CCOc1ccc(/C=C/C(=O)OCC(=O)NCC2CCCO2)cc1 (stereo not given)
    -6% | i
- CCOC(=O)Cn1nc(-c2ccc(C)cc2)c2ccccc2c1=O
    -18% | -20%
- C=CCN(CC=C)C(=O)c1cc(Cl)ccc1[N+](=O)[O-]
    -3% | i
- Cc1nnc(NC(=O)COc2ccc3c(C)cc(=O)oc3c2)s1
    -5% | -5%
- COc1ccc(Cl)cc1CNC[C@H]1O[C@@H](n2ccc(N)nc2=O)[C@H](O)[C@@H]1O
    -9% | i
- Cc1nnc(SCC(=O)N2CC(C)OC(C)C2)n1-c1ccccc1 (stereo not given)
    -9% | i
- CC(C)N(C(=O)c1ccc2nc(-c3ccccc3)c(-c3ccccc3)nc2c1)C(C)C
    -21% | -26%
- COc1ccc(-n2nc(C(=O)NCC(=O)N3CCN(c4ccccc4F)CC3)c3ccccc3c2=O)cc1
    -11% | -28%
- CC(=O)Nc1ccc(NC(=O)C2CC(=O)N(c3cccc(Cl)c3)C2)cc1 (stereo not given)
    -8% | -14%
- COc1ccc(-c2noc(C(C)NC(=O)c3ccco3)n2)cc1 (stereo not given)
    -8% | -6%
- COc1cc(NC(C)=O)c2ncccc2c1Br
    -12% | -3%
- CCOc1ccc(NC(=O)c2ccc(NC(=O)Cc3n[nH]c(=O)c4ccccc34)cc2)cc1
    -12% | -8%
- COc1ccc(C(C)NS(=O)(=O)Cc2ccccc2)cc1 (stereo not given)
    -4% | -7%
- O=c1c2cc([N+](=O)[O-])cc([N+](=O)[O-])c2[nH]n1-c1ccccc1
    -19% | ?
- CC(C)OCCCNC(=O)C1CCC(CNS(=O)(=O)c2ccc(Cl)cc2)CC1 (stereo not given)
    -12% | -12%
- Cc1cccc(CNC(=O)Cn2ccc3cc(S(=O)(=O)N4CCCC4)ccc32)c1
    -3% | 4%
- CC(=O)Nc1cccc(-c2cc(NC=O)c3ncc(-c4cccc(C(C)=O)c4)n3c2)c1
    ? | ?
- Cc1cc(NCCCN2CCOCC2)n2nc(C)c(-c3ccc(F)cc3)c2n1
    ? | ?
- COCCn1c(SC(C)C(=O)NCC2CCCO2)nc2scc(-c3ccc(F)cc3)c2c1=O (stereo not given)
    -11% | i
- O=S(=O)(c1ccc(Br)cc1)N1CCn2cccc2C1c1ccc(Br)cc1 (stereo not given)
    10% | 3%
- Cc1ccnc(NC(=O)CCCc2c[nH]c3ccccc23)c1
    ? | ?
- CN(C)S(=O)(=O)c1cc(NC(=O)C[N+]23CCN(CC2)CC3)ccc1Cl
    -4% | i

# The list goes on.
# Values run as follows: VACV Venus inh | VACV mCherry inh
- CC1(C(=O)NCc2cccnc2)Cc2c(-c3cccc(C(F)(F)F)c3)ccnc2O1 (stereo not given)
    ? | i
- CC(=O)Nc1ccc(S(=O)(=O)Nc2nnc(Cc3ccc(Cl)cc3)s2)cc1
    -2% | -19%
- O=C(Nc1cccc(Br)c1)c1ccc(CSc2ccccc2)cc1
    -16% | i
- COc1ccc(C(=O)NCC(=O)N/N=C/c2cn(C)c3ccccc23)cc1OC
    -6% | -5%
- O=C(NCC1CCCO1)c1ccc2c(=O)n(Cc3ccc(Cl)cc3)c(=S)[nH]c2c1 (stereo not given)
    0% | i
- O=C(NC(=S)Nc1ccc(N2CCOCC2)cc1)c1ccco1
    -5% | i
- CC(C)NC(=O)C(c1ccc(F)cc1)N(C(=O)CCC(=O)Nc1ccccn1)C1CCCCC1 (stereo not given)
    -18% | -4%
- Cc1c(CC(=O)NCCCCCC(=O)O)c(=O)oc2cc3c(cc12)CCC(C)(C)O3
    -1% | -7%
- CCCn1c2ccccc2c2cc(C(=O)O)ccc21
    -7% | i
- Cc1ccccc1NC(=O)/C=C1\SC(=O)NC1=O
    0% | i
- O=C(Nc1ccccc1Cl)OC1CCCCC1
    -5% | -10%
- Cn1cnc(S(=O)(=O)N2CCC(C(=O)NCc3ccc(F)cc3)CC2)c1
    -7% | -12%
- CCc1cc[n+](-c2nc([O-])sc2C=O)cc1
    6% | -4%
- COc1ccc(C2(CNC(=O)C(=O)Nc3ccc(C)c(Cl)c3)CCCC2)cc1OC
    -16% | -8%
- COc1ccccc1NC(=O)CSc1nnnn1C1CCCC1
    -12% | i
- CC1CC(C)CN(S(=O)(=O)c2ccc3c(c2)oc(=O)n3CC(=O)N2CCOCC2)C1 (stereo not given)
    -3% | 6%
- Cc1onc(C(=O)NCc2cccs2)c1[N+](=O)[O-]
    -2% | i
- CC1(CNC(=O)C(=O)NCC2(C)CO2)CO1 (stereo not given)
    -3% | i
- COc1cccc(NC(=O)C(Sc2nnc(-c3ccncc3)n2-c2ccc(Cl)cc2)c2ccccc2)c1 (stereo not given)
    ? | -6%
- CCC(C)c1ccccc1NC(=O)CN(C)CC(=O)Nc1ccccc1SC (stereo not given)
    -5% | i
- N#Cc1ccc(C(=O)Nc2cc3nn(-c4ccccc4)nc3cc2Cl)c(F)c1
    -2% | -7%
- CCOC(=O)c1ccccc1NC(=O)Cc1ccc(OC)c(S(=O)(=O)N2CCOCC2)c1
    0% | i
- Cn1c(N)c(S(=O)(=O)N2CCN(C(=O)c3ccco3)CC2)c(=O)n(C)c1=O
    -12% | i
- CC(C)Oc1ccc(/C(O)=C2/C(=O)C(=O)N(CCN(C)C)C2c2ccco2)cc1 (stereo not given)
    0% | /
- O=C(COc1cccc(Cl)c1)N1CCN(CCc2ccncc2)CC1
    -4% | -9%
- COc1ccccc1/C=C/C=NC1C(=O)N(c2ccccc2)[N+](C)=C1C (stereo not given)
    -12% | ?
- Cc1cc(N2CCOCC2)nc(-c2ccccc2O)n1
    -20% | -10%
- COc1ccc(OC)c(CNCCc2ccc(OC)c(OC)c2)c1
    -20% | -14%
- Cc1noc(NS(=O)(=O)c2ccc(NC(=O)CCC3CCCCC3)cc2)c1C
    -1% | -5%
- CC1CCCC(C)N1NC(=O)c1ccc(Cl)c(S(N)(=O)=O)c1 (stereo not given)
    -8%&-16% | -1%&-18%

# Six consecutive records out of the list so far, for reference:
# Values run as follows: VACV Venus inh | VACV mCherry inh
- O=C(COc1cccc(Cl)c1)N1CCN(CCc2ccncc2)CC1
    -4% | -9%
- COc1ccccc1/C=C/C=NC1C(=O)N(c2ccccc2)[N+](C)=C1C (stereo not given)
    -12% | ?
- Cc1cc(N2CCOCC2)nc(-c2ccccc2O)n1
    -20% | -10%
- COc1ccc(OC)c(CNCCc2ccc(OC)c(OC)c2)c1
    -20% | -14%
- Cc1noc(NS(=O)(=O)c2ccc(NC(=O)CCC3CCCCC3)cc2)c1C
    -1% | -5%
- CC1CCCC(C)N1NC(=O)c1ccc(Cl)c(S(N)(=O)=O)c1 (stereo not given)
    -8%&-16% | -1%&-18%

# (continued)
# Values run as follows: VACV Venus inh | VACV mCherry inh
- COc1cc(CNCc2cccs2)cc(Br)c1OC
    -26% | /
- CN(CC(=O)NCCc1ccc(S(N)(=O)=O)cc1)CC(=O)Nc1ccccc1Cl
    -22% | -11%
- COc1ccccc1-n1nnnc1SCC(=O)NCC1(N2CCCCC2)CCCCC1
    -14% | -9%
- Cc1cccc(NC(=S)Nc2ccc(Br)cc2)c1
    ? | -10%[1.46 µM]
- CSc1sc(C)cc1C=O
    0% | i
- CCN(CC)c1ccc(NC(=O)c2cc(Cl)ccc2OC)cc1
    5% | /
- O=C(O)CC(NC(=O)c1sc2ccccc2c1Cl)c1ccc(OC2CCCC2)cc1 (stereo not given)
    9% | 11%
- CCN1CCN(CCCNc2ncnc3nc[nH]c23)CC1
    -7% | 7%
- CCc1ccc(CNC(=O)C(C)n2ccc3cc(S(=O)(=O)N4CCCCCC4)ccc32)cc1 (stereo not given)
    -30% | i
- O=C(CC(c1ccccc1)(c1ccccc1)c1ccccc1)N[C@@H](Cc1ccc(O)cc1)C(=O)O
    -1% | -3%
- O=C(O)C1(c2cccc(Cl)c2)CCC1
    -9% | -14%
- N#Cc1cccc(NC(=O)Cc2ccsc2)c1
    ? | ?
- OCCN1CCN(c2cnc(-c3ccsc3)cn2)CC1
    6% | -26%
- COc1ccc(-c2nc(CS(=O)CC(=O)NCCc3ccc(C)cc3)c(C)o2)cc1OC (stereo not given)
    -5% | i
- Cn1c(=O)c([N+](=O)[O-])c(Oc2ccccc2)c2ccccc21
    -14% | -2%
- COc1ccc(-c2cc(C(=O)Nc3sc4c(c3C(N)=O)CCCC4)no2)cc1
    6% | -3%
- CC(OC(=O)CCc1nc2ccccc2c(=O)[nH]1)C(=O)NC1CCCC1 (stereo not given)
    -12% | -12%
- CC(CNC(=O)Cn1cnc2c(OCc3ccccc3)ncnc21)c1ccccc1 (stereo not given)
    -17% | i
- Cc1ccc(-c2cc(C(=O)Nc3cccnc3)[nH]n2)c(O)c1C
    -13% | -25%
- CC1C(=O)N(Cc2cn(CCC3OCCO3)nn2)CCS(=O)(=O)N1Cc1ccc(-c2ccc(F)cc2)cc1 (stereo not given)
    -22% | -28%
- Clc1nc(-c2ccccc2)cc(-c2ccccc2)n1
    -1% | -10%
